# Source: PubChem BioAssay
# VACV Venus inh – inhibitors of vaccinia virus (Venus reporter). AID 720580. Vaccinia virus Venus reporter expression, fluorescence. Potency, µM (titrated, usually from 36.5 µM), inactives show top-dose activity change, negative = inhibition, usual class: inhibitors. 0.46% of 330,000 active; active means well fitted inhibition curve with a large enough effect; inconclusive means small, poorly fitted or top-dose-only effect; inactive means no such curve, though single readings can be large or run the other way; tested in A549 cells; note: nearly all actives have a fitted effect of over 30% in size; inactives centre near -10
# VACV mCherry inh – vaccinia inhibition (mCherry reporter); AID 720579; Vaccinia virus mCherry reporter infection, fluorescence; about a quarter of the inactives have no number; Potency, µM (doses to about 36.5 µM), for the others: top-dose activity change, negative = inhibition, most hits filed as inhibitors; 0.63% of 310,000 active; active = well fitted inhibition curve with a large enough effect; inconclusive = small, poorly fitted or top-dose-only effect; inactive = no such curve, though single readings can be large or run the other way; tested in A549 cells; note: nearly all actives have a fitted effect of over 35% in size; inactives centre near -10
# * hit, by the source's call; i = inactive; ? = inconclusive; / = not tested or not shown; & = joins results of further samples; [ ] = dose if it differs, or a comment. % is set by controls: 0 for no effect and ±100 for the full control effect; potency is the fitted concentration of half-maximal effect.
SMILES,VACV Venus inh,VACV mCherry inh
CCc1ccc(S(=O)(=O)N(C(C)=O)c2ccc3oc4c(c3c2)CCCC4)cc1,-5%,-5%
O=C(Nc1ccc2c(c1)OCCO2)C1CCN(C(=O)c2ccc(Cl)cc2)CC1,-12%,-3%
Cn1c(=O)n(C)c2cc(NS(=O)(=O)c3ccc(F)cc3)ccc21,-14%&-15%,-11%
COc1cc(/C=N/NC(=O)c2nc3ccccn3c2C)cc(OC)c1O,9%,-5%
COCCCN1C(=O)C2C(C(=O)Nc3cc(C)cc(C)c3)C3C=CC2(O3)C1C(=O)NC1CCCCC1 (stereo not drawn),0%,1%
COC(=O)c1ccc(COc2ccc(/C=N/O)cc2OC)o1,-14%,-15%
CCc1cc2c(N3CCN(C)CC3)ncnc2s1,6%,3%
O=C(c1ccc(F)cc1)C1CCN(S(=O)(=O)c2ccccc2)CC1,-10%,-10%
CCCNC(=O)N(CCOC)CC1CCCN(C2Cc3ccccc3C2)C1 (stereo not drawn),3%,-21%
Cc1ccc(C)c(NC(=O)c2cc(=O)c3ccccc3o2)c1,-11%,3%
Cc1[nH]n(-c2ccccc2)c(=O)c1N=Nc1cccc(C(=O)O)c1,4%,-17%
CCCCC(c1nnnn1CCOC)N1CCN(Cc2ccccc2)CC1 (stereo not drawn),-7%,-12%
CCCCCn1c(SCC(=O)OC)nc2c1c(=O)[nH]c(=O)n2C,-2%,-14%
O=C(O)c1csc(-c2cccs2)n1,-12%,-17%
COc1cccc(C2CC(c3ccccc3)Nc3nc(N)nn32)c1 (stereo not drawn),-8%,-12%
CC(C)(C)c1ccc(NC(=O)c2ccc(=O)[nH]n2)cc1,-14%,-16%
O=C(Nc1ccccc1N1CCCCC1)c1cccs1,-11%,-12%
O=C(Nc1nc2cc3c(cc2s1)OCCO3)C1CCCCC1,-26%,?
O=C(CCN1CCN(c2ccccc2)CC1)NNC(=O)Cc1ccc(Br)cc1,?,?
COc1ccc(-c2oc3cccnc3c2/C=C/c2ccc(OC)c(OC)c2)cc1,-16%,?
CC(=O)NCCc1nc2cc(NC(=O)c3ccccc3Cl)ccc2n1C,-16%,-27%
Cc1ccc(NC(=S)c2ccccc2)cc1,-14%,i
Cc1ccc(C(=O)Nc2ccc3c(c2)OCO3)cc1,-23%,-27%
COCCN(C(=S)Nc1ccc(C)cc1)C(C)c1cccnc1 (stereo not drawn),-7%,14%
Cc1c(Br)c([N+](=O)[O-])nn1CC(=O)Nc1ccccn1,-2%,-19%

# The results go on:
SMILES,VACV Venus inh,VACV mCherry inh
Nc1cccc(NC(=O)CN2CCOCC2)c1,-16%,-13%
Nc1ccccc1SCc1cn2cccnc2n1,4%,28%
O=C(COc1ccc(S(=O)(=O)N2CCCC2)cc1[N+](=O)[O-])N1CCCC1,-7%,i
CCCCOc1ccc(C(=O)NCCc2csc(-c3cccc(F)c3)n2)cc1,-1%,-9%
CC(C)(C)n1nnnc1C(c1ccc(Cl)cc1)N1CCSCC1 (stereo not drawn),-28%,/
O=C(Cn1ccn(-c2cccc(Cl)c2)c(=O)c1=O)NCCc1ccccc1,-2%,-2%
COc1ccccc1N1C(=N)S/C(=C\c2ccc(-c3ccccc3C(=O)O)o2)C1=O,11%,-9%
CCOC(=O)CSc1nc(-c2ccc(OC)cc2)ns1,-16%,-12%
CC(C)C(=O)N(Cc1ccccc1)S(=O)(=O)c1ccc2c(c1)oc(=O)n2C,1%,-3%
COCc1nnc(NC(=O)CCc2ccccc2)s1,-17%,-24%
O=C1N(Cc2cccnc2)C[C@@H]2C[C@@H](c3ccccc3C#Cc3ccccc3)N3CCC[C@@]123,-14%,-13%
COC(=O)c1cccc(C(=O)NCc2nc(-c3ccccc3NC(C)=O)oc2C)c1,8%,-7%
O=C(O)c1ccc(Cl)c(S(=O)(=O)Nc2ccccc2N2CCOCC2)c1,-1%,-1%
CC(NCC(=O)Nc1ccccc1C(=O)NC1CC1)c1ccc(F)cc1F (stereo not drawn),6%,-5%
O=[N+]([O-])c1ccccc1S(=O)(=O)NCc1ccc(F)cc1,-12%,-10%
O=C(c1cc2nc(-c3ccco3)cc(C(F)(F)F)n2n1)N1CCN(Cc2ccccc2)CC1,-6%,-17%
CCOC(=O)CNc1ccc(OC(F)(F)F)cc1,-6%,i
COc1cccc(CNC(=O)COC(=O)c2ccc(Cl)s2)c1,-2%,-17%
Cn1c(C(=O)OC(C(=O)NC2CCCC2)c2ccncc2)cc2sccc21 (stereo not drawn),-13%,-19%
Oc1ccccc1-c1nc2ccc(Cl)cn2c1Nc1ccc2c(c1)OCCO2,3%,1%
CCC1(C)C2(C#N)C(N)=NC(OC)(OC)C12C#N (stereo not drawn),-11%,-12%
O=C(Nc1ccc2nn(-c3ccccc3)nc2c1)c1ccc(Br)o1,-4%,-10%
COc1ccccc1-n1nc(C(=O)Nc2ccc3c(c2)OCO3)c2ccccc2c1=O,8%,/
CCc1nc2ccc(C(=O)NCc3cc(OC)ccc3OC)cc2nc1CC,3%,-10%
Cc1ccc(C#CC[N+](C)(C)CC#Cc2ccccc2)cc1,1%,-23%

# Of the compounds above, these have a thiophene ring, fused or not.
SMILES,VACV Venus inh,VACV mCherry inh
CCc1cc2c(N3CCN(C)CC3)ncnc2s1,6%,3%
O=C(O)c1csc(-c2cccs2)n1,-12%,-17%
O=C(Nc1ccccc1N1CCCCC1)c1cccs1,-11%,-12%
COc1cccc(CNC(=O)COC(=O)c2ccc(Cl)s2)c1,-2%,-17%
Cn1c(C(=O)OC(C(=O)NC2CCCC2)c2ccncc2)cc2sccc21 (stereo not drawn),-13%,-19%

# (more compounds)
SMILES,VACV Venus inh,VACV mCherry inh
COc1ccc(-n2c(O)c(/C=C3\C=Nc4ccc(Br)cc43)c(=O)[nH]c2=O)cc1,-11%,i
CN(C)Cc1nc2ccccc2c(=O)n1Cc1nc(C(C)(C)C)cs1,-6%,-20%
Cc1c(C)c2c(OCC(=O)NCC(=O)NCC(=O)O)cc3c(c2oc1=O)CCC(C)(C)O3,-15%,-14%
O=C(Nc1ccc2oc(-c3ccccc3)nc2c1)c1ccc2ccccc2c1,?,-24%
CCCCOC(=O)c1ccc(NC(=O)c2sc3nc(C)cc(C)c3c2N)cc1,-12%[7.34 µM],-17%[7.34 µM]
Cc1cc2nc(-c3ccco3)c(Cc3ccccc3C(F)(F)F)n2c(C)c1Br,-6%,-14%
CC(C)C[C@H](NC(=O)OC(C)(C)C)C(=O)N[C@@H](CO)[C@H](O)[C@@H]1C[C@@H]1C(=O)NC1CC1,-3%,i
COc1ccc(N2C(=O)CS(=O)(=O)C23C(=O)N(Cc2c(F)cccc2Cl)c2ccccc23)cc1 (stereo not drawn),0%,-8%
Cc1ccc(SCc2ccc(C(=O)Nc3ccccc3Br)cc2)cc1,0%,-13%
Cc1ccc(S(=O)(=O)Nc2ccccc2CNc2ncc(Br)cc2Br)cc1,-30%,-19%
COc1ccc(-c2oc3c(c2C(=O)OCCO)C(OCCCO)CCC3)cc1 (stereo not drawn),-7%,-5%
N#Cc1ccc(C(=O)OCC(=O)NC(=O)NC2CCCCC2)cc1,-13%,i
COc1ccc(CCNC(=O)COC(=O)c2ccc([N+](=O)[O-])o2)cc1,-12%,-6%
O=C(ONC1=NCCCCC1)c1cccc([N+](=O)[O-])c1,-3%,i
Cc1cn([C@H]2C[C@H](O)[C@@H](/C=C/C(=O)NCc3ccccc3)O2)c(=O)[nH]c1=O,6%,6%
C=CCn1c(O)c(N=NC(=O)CNC(=O)c2ccco2)c2ccccc21,-22%,?
CCC(=O)N1c2ccc(S(=O)(=O)NCc3ccc(F)cc3)cc2CC1C (stereo not drawn),-11%,-17%
Cc1ccc(N2CC(NC(=O)c3ccc(S(=O)(=O)N4CCOCC4)cc3)CC2=O)cc1C (stereo not drawn),-9%[7.34 µM],-9%[7.34 µM]
CC(=O)Oc1ccc(N2C(=O)[C@@H]3[C@H](C2=O)[C@H]2c4ccccc4C=NN2[C@@H]3C(C)=O)cc1,-7%,-12%
CCC(C)(C)n1nnnc1C(c1ccc(O)c(OC)c1)N1CCN(c2nc3ccccc3s2)CC1 (stereo not drawn),-22%,/
Cc1ccc(CNC(=O)Nc2cccs2)cc1,-6%,/
Cc1ccc(S(=O)(=O)NCC2NCCc3ccccc32)cc1 (stereo not drawn),-8%,-9%
CSc1ccc(C2CC(=O)Nc3nc(SC)[nH]c(=O)c32)cc1 (stereo not drawn),-6%,i
COc1cc(C2OC(c3cc(OC)c(OC)c(OC)c3)C(C)C2C)cc(OC)c1OC (stereo not drawn),-2%,-8%
Cc1ccc(C(=O)c2cc(C)sc2N)cc1,-1%,-13%

# Pulled one by one from above, 2 records:
SMILES,VACV Venus inh,VACV mCherry inh
COc1ccc(-n2c(O)c(/C=C3\C=Nc4ccc(Br)cc43)c(=O)[nH]c2=O)cc1,-11%,i
CCC(C)(C)n1nnnc1C(c1ccc(O)c(OC)c1)N1CCN(c2nc3ccccc3s2)CC1 (stereo not drawn),-22%,/

# Later entries.
SMILES,VACV Venus inh,VACV mCherry inh
Cn1cccc1C(=O)NC(=O)CSc1nc2ccccc2s1,-9%,-15%
CSc1ccccc1NC(=O)CN1CC(C)OC(C)C1 (stereo not drawn),-6%,-10%
Cc1cc2c(=O)n(C)c(SCC(=O)c3cc4ccccc4o3)nc2s1,-8%,i
Cn1cnnc1Sc1cc(N2CCN(S(=O)(=O)c3ccc(Cl)c(Cl)c3)CC2)ccc1[N+](=O)[O-],?,/
CC(C)OC(=O)c1nnc(-c2ccccc2)nc1OC(C)C,2%,/
CC1CN(C(=O)c2ccccc2)c2ccccc2NC1=O (stereo not drawn),-14%,?
CC(C)N(C(=O)CN1CCN(S(=O)(=O)c2ccc(Br)s2)CC1)C(C)C,-1%,-18%
Cc1ccccc1OCc1nc2ccccc2n1Cc1ccccc1Cl,-2%,-1%
Cc1cccc(NC2=C(Cl)C(=O)OC2NC(=O)c2ccccc2)c1 (stereo not drawn),-1%,1%
O=C(O)/C=C/C(=O)OC1CC2CCC1C2 (stereo not drawn),-14%,-12%
CCCCn1c(CCl)nc2cc(S(=O)(=O)N3CCOCC3)ccc21,-15%,-20%
CCCCN1C(=O)Cc2c1nc(N)c1c(N)nc(N(CCC)CCC)c(C#N)c21,-6%,-6%
CCN(CC)S(=O)(=O)c1cc(NC(=O)CNc2c(C)n(C)n(-c3ccccc3)c2=O)ccc1C,-15%,i
COCCN1CCn2c(nc3cc([N+](=O)[O-])ccc32)C1,-5%,-8%
Cc1ccc(/C=N/NC(=O)c2cccnc2)o1,-8%,-15%
O=C(COC(=O)Cc1cn2ccsc2n1)NCc1ccc2c(c1)OCO2,-10%,-19%
CN1CCN(c2ccccc2NC(=O)Cc2cn(C)c3ccccc23)CC1,7%,i
Cc1c(-c2nc(N)nc(Nc3ccc(F)cc3)n2)oc2ccccc12,?,/
O=C(NCc1ccccc1)c1cc(C2CCCCN2C(=O)CCCc2ccccc2)on1 (stereo not drawn),-20%,-15%
COc1ccc(NC(=O)CSc2nnc(CC(=O)Nc3ccc(F)cc3)n2C)cc1,-5%,9%
Cc1ccc(NC(=O)CSc2cccc[n+]2[O-])c([N+](=O)[O-])c1,1%,-12%
Cc1cccc(-c2nc(SCc3ccc(Br)cc3)n3[nH]c(=O)cc3n2)c1,1%,-17%
Cc1ccc(NC(=O)C2CCCN(S(=O)(=O)c3cnc[nH]3)C2)cc1F (stereo not drawn),-8%,-2%
O=C(NCCCN1CCOCC1)C1CC(=O)N(CCc2ccccc2)C1 (stereo not drawn),-4%,/
COc1ccccc1N(CC(=O)NCCc1ccccc1)S(C)(=O)=O,0%,-12%

# Gathered by group: those above with a tert-butyl group (4)
SMILES,VACV Venus inh,VACV mCherry inh
CC(C)(C)c1ccc(NC(=O)c2ccc(=O)[nH]n2)cc1,-14%,-16%
CC(C)(C)n1nnnc1C(c1ccc(Cl)cc1)N1CCSCC1 (stereo not drawn),-28%,/
CN(C)Cc1nc2ccccc2c(=O)n1Cc1nc(C(C)(C)C)cs1,-6%,-20%
CC(C)C[C@H](NC(=O)OC(C)(C)C)C(=O)N[C@@H](CO)[C@H](O)[C@@H]1C[C@@H]1C(=O)NC1CC1,-3%,i

# (list continues)
SMILES,VACV Venus inh,VACV mCherry inh
CC(=O)c1c(O)c(C)c(O)c2c1OC1=Cc3c(c(C)nn3C)C(=O)C12C (stereo not drawn),?,?
COc1ccc(CNS(=O)(=O)c2c(C)[nH]c(C)c2C(=O)N2CCCCC2)cc1,-4%,-16%
Cc1ccc(-c2[nH]ncc2/C=C(\C#N)C(=O)NC2CCCCC2)cc1,?,?
O=C(Nc1ccccn1)Nc1ccccc1[N+](=O)[O-],-17%,i
C=CCOc1ccc(C2c3c(oc4ccc(C)cc4c3=O)C(=O)N2CCCN2CCOCC2)cc1 (stereo not drawn),-14%,-12%
Cc1cc(C(=O)COC(=O)c2ccc[nH]c2=O)c(C)n1C1CC1,-6%,-14%
CCc1ccc(N2CC(C(=O)Nc3ccc(S(=O)(=O)Nc4nccs4)cc3)CC2=O)cc1 (stereo not drawn),-1%,-14%
Nc1c(NCc2ccccc2)c(=O)c1=O,-11%[7.34 µM],-3%[7.34 µM]
CCCCCCCN(CCCCCCC)c1ccc(/C=C/c2ccnc3ccccc23)cc1,33%[activator],45%[activator]
O=C1CCN(Cc2nc(-c3ccc(Cl)cc3)no2)CCN1,-7%,-18%
O=C(Nc1ccc(S(=O)(=O)Nc2ncccn2)cc1)C12CC3CC(CC(Cl)(C3)C1)C2,-4%,i
CCc1ccc(NC(=O)C2(C)Cc3ccccc3C(=O)O2)cc1 (stereo not drawn),5%,1%
Cc1ccc(-c2cc(C(=O)Nc3nccs3)c3ccccc3n2)o1,-13%,i
CCCC(=O)N/C(N)=N/c1nc(C)c2ccccc2n1,-47%,-16%
Cc1nn2c(=O)cc(CN(C)c3ccccc3)nc2s1,-2%,-11%

# Rows are unselected; any-hit rate near 0.86%.
